Screens: PubChem, ICCB-Longwood Screening Facility, Harvard Medical School
Vaccinia pol inh: vaccinia E9 polymerase processive synthesis inhibition. in vitro processive DNA synthesis, absorbance read-out; active compounds read low; some inactives read as strong as hits. normalized absorbance, % (no concentration beside the values). hit rate 0.94% among 46,000. AID 493162;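 active = replicate mean up to 90% and picked by the depositor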;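 also: 100% = median of the test wells of a plate; 100 nL library stock went into each well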
An asterisk follows results filed as active.

SMILES | Vaccinia pol inh
NC(=O)c1ccccc1OCC(=O)O | 98
Cc1ncoc1C(=O)NCCC(c1ccccc1)c1ccccc1 | 101
Cc1cc(C(=O)OCC(=O)c2cccs2)c2ccccc2n1 | 100
COc1ccc(C(=O)CSc2nc3ccc(OC)cc3[nH]2)cc1 | 100
O=C(CS(=O)(=O)Nc1cccc(C(F)(F)F)c1)Nc1cccc(C(F)(F)F)c1 | 99
CCCCC[C@H](O)CC(=O)CCc1ccc(O)c(OC)c1 | 100
Cc1ccc(NS(=O)(=O)CC23CCC(CC2=O)C3(C)C)c(Br)c1 (stereo not given) | 83
O=C(COC(=O)/C=C/c1ccco1)Nc1ccc(F)cc1F | 102
CN(C)CCNC(=O)c1cc2ccccc2oc1=O | 95
COc1ccc(-n2c(C)cc(=O)cc2C)cc1 | 108
CN1CCN(c2nnc(-c3ccccc3)c3ccccc23)CC1 | 101
COc1ccc(NC(=O)CSc2nc(C)cc(=O)[nH]2)cc1 | 97
Cc1cc(C)cc(NCCC(=O)O)c1 | 96
S=c1nc(Cc2ccccc2)[nH][nH]1 | 100
CC(C)(c1ccccc1)c1ccc(OCC(=O)NC2CCCC2)cc1 | 100
CCCOc1ccc(CNC(=S)NCc2ccc(OC(C)C)cc2)cc1 | 100
CC(Sc1ccccc1)C(=O)Nc1ccc(Cl)cc1 (stereo not given) | 98
C=C1Cn2c(nnc2-c2ccc(Cl)cc2)S1 | 98
CS(=O)(=O)CCC(C(=O)n1nnc2ccccc21)N1C(=O)c2ccccc2C1=O (stereo not given) | 100
CCOC(=O)COc1ccc(C2CC(C)=NN2c2ccccc2)cc1 (stereo not given) | 100
CC1CCCCC1NC(=O)CCn1c(=O)sc2ccccc21 (stereo not given) | 99
CC(O)CNc1ncnc2c1c(-c1ccccc1)cn2-c1ccccc1 (stereo not given) | 98
CNc1ccccc1C(C)(C)c1cc(C)[nH]n1 | 92
O=C(CSc1ncnc2nc[nH]c12)NCCc1ccccc1 | 100
CCCn1ncc(C(=O)O)c1C | 100
COc1ccc2nc(C)cc(Cl)c2c1 | 81
CCOC(=O)CCCN1c2ccccc2CCC1C(=O)OCC (stereo not given) | 100
Nc1c(-c2nc(-c3ccccc3)cs2)c2ccccn2c1C(=O)c1ccccc1 | 100
CNS(=O)(=O)c1ccc2c(c1)C(=NO)c1cc(S(=O)(=O)NC)ccc1-2 | 100
CCSc1nnc(NC(=O)/C=C/c2ccccc2)s1 | 100
CN(C(=O)COc1cccc(Br)c1)C1CCS(=O)(=O)C1 (stereo not given) | 98
CCC(C)NC(=O)c1ccc(NC2=NC3CS(=O)(=O)CC3S2)cc1 (stereo not given) | 89
O=S(=O)(NCCC12CC3CC(CC(C3)C1)C2)c1cc(Cl)ccc1Cl | 100
COc1cccc(NC2SC(=O)N(c3ccccc3)C2=O)c1 (stereo not given) | 103
CCc1ccccc1NC(=O)CSc1nc2ncccc2[nH]1 | 86
COCc1cc(C)nc2sc3c(=O)[nH]c(-c4ccccc4O)nc3c12 | 101
COc1ccccc1Oc1ccc(S(=O)(=O)NCc2ccccn2)cc1 | 97
O=C(COc1ccccc1)Nc1cc(S(=O)(=O)C(F)(F)F)ccc1Cl | 103
Cc1onc(-c2ccccc2)c1C(=O)NCc1ccc(F)cc1 | 100
COc1ccc2c(c1)C(=O)C(CC1(O)C(=O)Nc3ccccc31)CC2 (stereo not given) | 100
Cc1cccc(-c2nc3c(cnn3-c3ccccc3)c(=O)n2-c2ccccc2)c1 | 100
c1ccc2c(CN3CCN(Cc4c[nH]c5ccccc45)CC3)c[nH]c2c1 | 99
OC(CSc1ccc(F)cc1)CN1CCN(c2cccc(C(F)(F)F)c2)CC1 (stereo not given) | 86
O=C(C1CCN(c2ncnc3c2sc2cccc(F)c23)CC1)N1CCCCCC1 | 100
CN1CCN(S(=O)(=O)Cc2ccc(Cl)cc2)CC1 | 116
CCN(CC)C(=O)CSc1nc2c(cc1C#N)CCCC2 | 100
NC(=O)CCn1nc(-c2ccccc2)c2ccccc2c1=O | 97
CN1CCOc2cc(S(=O)(=O)N3CCCC3c3ccc(F)cc3)ccc21 (stereo not given) | 111
CN(C(=O)c1noc2c1COc1ccccc1-2)c1cccc(C(F)(F)F)c1 | 103
Cc1cc(C)cc(NC(=S)N(CCN(C)C)C2CCN(C(C)C)CC2)c1 | 122
Further results
SMILES | Vaccinia pol inh
O=C(c1ccc(Cl)c(Cl)c1)N1CCC(F)(CO)CC1 | 87
O=c1c2ccccc2[nH]c(=S)n1-c1cccc(C(F)(F)F)c1 | 102
N#CC(C(=O)c1ccco1)c1nc2ccccc2[nH]1 (stereo not given) | 86
Cc1cc(C)c(N2CCCC2C(=O)Nc2cccc(C(F)(F)F)c2)c(C)c1 (stereo not given) | 104
O=S(=O)(c1ccc(F)cc1)N1CCc2ccccc2C1 | 100
CCCC(=O)Nc1ccc(-c2nc3cc4ccccc4cc3[nH]2)cc1 | 101
COC(=O)c1sccc1N1C(=O)Nc2ccccc2N1O | 99
CCN(CCCc1ccccc1)CCCc1ccccc1 (tested in a mixture with another compound) | 103
Cc1cccnc1NC(=O)C(C)(C)C | 105
CN1CCN(CCC=C2c3ccccc3Sc3ccc(S(=O)(=O)N(C)C)cc32)CC1 | 97
O=S(=O)(c1cccc2cccnc12)N1CCCCC1 | 101
O=C1c2ccccc2C(Nc2ccccc2)N1Cc1ccccc1 (stereo not given) | 108
CCOc1cccc2sc(N)nc12 | 115
CCOC(=O)CSc1nc(C)c2ccc(C)cc2n1 | 94
Cc1cc(OCC(=O)N(Cc2ccc(Cl)cc2)Cc2ccco2)cc(C)c1Cl | 103
CCOC(=O)c1csc(NC(=O)c2sc3ccccc3c2Cl)n1 | 102
CCOc1ccccc1NC(=O)CC#N | 101
COC(=O)[C@@H](N)CSC/C=C(\C)CC/C=C(\C)CCC=C(C)C | 99
O=C(c1nn2c(C(F)(F)F)cc(-c3cccs3)nc2c1Cl)N1CCCc2ccccc21 | 100
CCN(CC)C(=S)NC1CCCCC1 | 90
O=S(=O)(c1ccc(Cl)nc1)N1CCCCC1 | 96
CCOC(=O)c1cc(C#N)c(=S)[nH]c1-c1ccccc1 | 99
CCN(CC)CC(O)Cn1c(-c2ccc(OC)cc2)cc2ccccc21 (stereo not given) | 100
C=CCOc1ccc(/C=C2\C(=O)N(c3ccc(S(N)(=O)=O)cc3)N=C2C(F)(F)F)cc1OC | 100
CC(=O)Nc1ccc(OCC(O)CN2CCc3ccccc3C2)cc1 (stereo not given) | 83
CC(C)(C)c1ccc(Cn2c(=O)n(Cc3ccc4c(c3)OCO4)c(=O)c3ccccc32)cc1 | 102
O=c1cc(-c2ccccc2)nc2scc(-c3ccccc3)n12 | 102
CCC(CO)Nc1ncnc2c1cnn2-c1ccccc1 (stereo not given) | 101
c1ccc(Nc2nc3c(s2)Cc2ccccc2-3)cc1 | 96
CCOC(=O)CC(N)c1ccccc1Cl (stereo not given) | 101
O=C1Oc2ccccc2C(=O)/C1=C/N1CCc2ccccc21 | 104
CS(=O)(=O)N(Cc1ccc(Cl)cc1)c1ccc(C(=O)N2CCCCCC2)cc1 | 100
Cc1c(C(=O)N2CCCc3ccccc32)sc2nc(-c3ccccc3)cn12 | 100
COC(=O)C(C)Nc1cccc(Br)c1 (stereo not given) | 100
COC(=O)c1sccc1S(=O)(=O)Nc1ccc(-c2cn3c(n2)SCC3)cc1 | 97
COc1ccc2cc3cc(C(=O)Nc4ccc(Oc5ccccc5)cc4)oc3nc2c1 | 100
N#CC1(C#N)[C@@H]2c3ccccc3C=CN2[C@@H](C(N)=O)[C@@H]1c1ccc(F)cc1 | 100
CS(=O)(=O)C1=C(N)C(=O)N(c2ccccc2)C1c1ccccc1 (stereo not given) | 96
CCOc1cc2c(cc1OCC)C1c3ccccc3OCC(=O)N1CC2 (stereo not given) | 101
Cc1ccc(Nc2c(-c3ccc(C)o3)nc3nc(C)cc(C)n23)cc1 | 101
CC1=C(c2ccc(C)cc2)S(=O)(=O)N=C1N1CCCC1 | 102
COc1ccc(N(C(=O)c2ccco2)c2ccccc2)cc1 | 99
CC(=O)Nc1ccc(S(=O)(=O)NCc2ccc(C(=O)NCc3ccccc3)cc2)cc1 | 99
CC(=O)Nc1nonc1N1CCCC1=O | 100
c1ccc(CSc2ccc3nnc(-c4ccccn4)n3n2)cc1 | 95
CCOc1ccccc1C1C=CCC1 (stereo not given) | 104
c1ccc(-c2ccc3ccccc3n2)nc1 | 99
CNC(=S)N(CCc1c(C)[nH]c2ccccc12)Cc1cc(OC)c(OC)c(OC)c1 | 102
CCC(C(=O)NCC1CCCO1)c1ccccc1 (stereo not given) | 98
CCn1cnc2cc(NC(=O)c3cc(OC)c(OC)c(OC)c3)ccc21 | 106

Arranged by molecular weight (smallest number first): eight of the compounds above
SMILES | Vaccinia pol inh
CCOc1ccccc1C1C=CCC1 (stereo not given) | 104
c1ccc(-c2ccc3ccccc3n2)nc1 | 99
CC(=O)Nc1nonc1N1CCCC1=O | 100
CC1=C(c2ccc(C)cc2)S(=O)(=O)N=C1N1CCCC1 | 102
COc1ccc(N(C(=O)c2ccco2)c2ccccc2)cc1 | 99
c1ccc(CSc2ccc3nnc(-c4ccccn4)n3n2)cc1 | 95
Cc1ccc(Nc2c(-c3ccc(C)o3)nc3nc(C)cc(C)n23)cc1 | 101
CC(=O)Nc1ccc(S(=O)(=O)NCc2ccc(C(=O)NCc3ccccc3)cc2)cc1 | 99

Additional entries
SMILES | Vaccinia pol inh
COC(CNC(=O)c1ccc2c(c1)ncn2C1CCCCCC1)OC | 86
CN(CCc1ccccn1)S(=O)(=O)c1ccc2c3c(cccc13)C(=O)N2 | 90
O=C(C1CCN(S(=O)(=O)N2CCCCC2)CC1)N1CCCCC1 | 105
COc1ccc(C=NCC2(c3ccccc3)CCCC2)c(OC)c1 | 101
COc1ccc(CCn2c3c(c(=S)[nH]c2=O)CCC3)cc1OC | 98
O=C(CC(C(=O)O)N(Cc1ccccc1)Cc1ccccc1)c1ccc(Cl)cc1 (stereo not given) | 99
c1ccc(COn2c(-c3ccccc3)nc3ncccc32)cc1 | 84
C=C(CO)C1Cc2c(ccc3c(=O)c4c(oc23)COc2cc(OC)c(OC)cc2-4)O1 (stereo not given) | 100
COc1ccc(N2CCN(C(CNC(=O)Oc3ccccc3)c3cccnc3)CC2)cc1 (stereo not given) | 101
Cc1ccc2c(c1)c1nc3ccccc3nc1n2CC(=O)OCc1ccccc1 | 97
O=C(NCCCc1ccccc1)C1CCCN(S(=O)(=O)N2CCCCC2)C1 (stereo not given) | 80
CCN(CC)c1nc2ccccc2s1 | 103
Cc1ccc(N2CCN(C(=O)C(c3ccccc3)c3ccccc3)CC2)cc1Cl | 98
O=C(CCN1CCc2ccccc2C1)c1ccc2c(c1)OCCO2 | 100
O=C(O)c1cc(S(=O)(=O)Nc2ccc(O)cc2)ccc1O | 101
COC(=O)c1cccc(NC(=O)/C=C/c2ccc3c(c2)OCO3)c1 | 95
CCCNC(=O)Nc1ccc2c(c1)N(C)C(=O)c1ccccc1S2 | 117
CC(Oc1ccccc1)c1ccnn1S(C)(=O)=O (stereo not given) | 97
O=C(Cc1cccc(C(F)(F)F)c1)OCC(=O)N1CCCCCC1 | 106
O=C(NC1CC(O)c2sccc21)C(F)(F)F (stereo not given) | 99
O=C(CC12CC3CC(CC(C3)C1)C2)N1CCCCC1 | 101
CC(C)OC(=O)C1C(=O)NC23CCCCC2C1c1ccccc1O3 (stereo not given) | 107
COc1ccc(COCC(O)CS(=O)(=O)c2ccc(OC)c(OC)c2)cc1 (stereo not given) | 105
Cn1cnnc1SCC(=O)N1c2ccccc2Sc2ccc(Cl)cc21 | 96
CN(C)c1ccc(/C=C2\CCCC(=C3SCCS3)C2=O)cc1 | 101
CCN1CCN(CCC(=O)Nc2ccc(-c3ccccc3)cc2)CC1 | 101
CCOc1ccc(C(=O)CNC2=NCCC2)cc1 | 103
O=C(CN1CCCN(Cc2ccc(F)cc2Cl)C1=O)NC1CCCCCC1 | 95
COc1ccc(CCn2c(=O)c3ccccc3n(CC(=O)N(C)c3ccccc3)c2=O)cc1OC | 104
Cc1ccc(S(=O)(=O)N(C)CC(=O)NCc2nc(-c3cccc(C)c3)no2)cc1 | 90
O=C(CSc1nccn1-c1ccccc1)NCc1ccc2c(c1)OCO2 | 99
Cc1ccc(S(=O)(=O)NCCC(=O)N2CCCCC2)cc1 | 99
CC(C)n1[nH]c(=O)c2c1NC(=O)CSC2c1ccc(Br)cc1 (stereo not given) | 100
COc1ccccc1NCC(=O)n1nc(-c2ccccc2)cc1-c1ccccc1 | 100
CN(Cc1ccccc1)c1nnc(NC(=O)NCc2ccccc2)s1 | 110
CC1Cc2ccccc2N1C(=O)COc1ncnc2ccccc12 (stereo not given) | 96
CC(=O)Nc1ccc2nc(NC(=O)c3ccco3)sc2c1 | 99
Cc1ccc2c(c1)N(CC(=O)NC1CCCC(C)C1C)C(=O)c1cccnc1O2 (stereo not given) | 95
O=C(OCC1CCCN2CCCCC12)c1cc2ccccc2oc1=O (stereo not given) | 84
Cc1ccccc1NS(=O)(=O)c1ccc2c(c1)c(=O)n(C)c(=O)n2C | 90

Exported with each value named: entries from further up.
> COc1ccccc1NCC(=O)n1nc(-c2ccccc2)cc1-c1ccccc1
  Vaccinia pol inh: 100

> CC(=O)Nc1ccc2nc(NC(=O)c3ccco3)sc2c1
  Vaccinia pol inh: 99

> O=C(CSc1nccn1-c1ccccc1)NCc1ccc2c(c1)OCO2
  Vaccinia pol inh: 99

> Cc1ccc(S(=O)(=O)NCCC(=O)N2CCCCC2)cc1
  Vaccinia pol inh: 99

An excerpt, so the mix of outcomes need not match the whole.
